# Source: PubChem (several laboratories)
# Mtb hypoxia rep: inhibitors of hypoxia-regulated fluorescent reporter in Mycobacterium tuberculosis. M. tuberculosis hypoxia-regulated fluorescent reporter, fluorescence. fluorescence inhibition, % (no concentration beside the values). 300,000 tested, 0.1% active. AID 1159583;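 active = 35 to 45% if threefold the growth effect, above 45% if 1.5-fold the growth effect; inactive = the rest, general growth blockers included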;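 also: wells of about 50 µL received 100 nL stock; 0% = vehicle wells and 100% = reference inhibitor wells; whole bacteria with a GFP reporter of the hypoxia response; strong numbers were not always called active; many hits fall short of the cut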
# BJeLR lethal: BJeLR cell viability loss. BJeLR (HRASV12) viability, CellTiter-Glo ATP luminescence, 48 h; reference of the scale not given here. inhibition, % (concentration not given with the values). 300,000 tested, 0.17% active. AID 1554;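 active = replicate mean above 50%; inconclusive = above 50% but judged a plate artefact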;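 also: 50 nL library stock added to about 25 µL; numbers are from one replicate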
# PrP 5UTR inh: suppresses PrP 5' UTR mRNA reporter expression; cell-based PrP 5' UTR mRNA reporter, plate reader; inhibition, % (test concentration not listed); 340,000 tested, 0.35% active; AID 488862;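 active = every replicate at 50% or more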;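 also: 0 = median of the neutral control wells; tested in H4 reporter cells; numbers are from one replicate; inactives centre near -14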
# Sa RN4220 lethal: S. aureus RN4220 growth inhibition. inhibition, % (concentration not given with the values). AID 1259311. 330,000 tested, 0.33% active. OD600, 16 h;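 active = z-score of -3 or lower and OD600 up to 0.18 on both plates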;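 also: plate controls were untreated cells for no effect and reference antibiotic for full effect; stock transfer was 100 nL into about 80 µL; one replicate is shown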
# ugtP null kill: compounds lethal to S. aureus RN4220 ugtP deletion mutant. growth inhibition, % (no concentration beside the values). OD600 growth, 16 h; some inactives read as strong as hits. AID 1259309. 330,000 tested, 0.54% active;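 active = z-score under -3 and OD600 up to 0.15 on both plates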;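 also: plate controls were untreated wells for no effect and antibiotic for full effect; wells of about 80 µL received 100 nL stock; the first replicate is given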
# Bead autofluor: compound fluorescence in toxin protease inhibitor counterscreen; compound autofluorescence counterscreen, microsphere flow cytometry; stronger effect = higher value; fluorescence intensity (test concentration not listed); 360,000 tested, 3.1% active; AID 624483;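 active = at least 3 SD above the mean of all compounds, about 16000 in these data; inconclusive = too few beads counted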;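 also: 100 nL of 1 mM stock went into each well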
# Mtb hypoxia rep growth: also measured in Mtb hypoxia rep; calls as there; growth inhibition, %; measured here: M. tuberculosis growth (absorbance);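 0% = vehicle and 100% = reference antibiotic; read after six days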
# * = called active by the depositor; ? = inconclusive; · = no result given.
SMILES,Mtb hypoxia rep,Mtb hypoxia rep growth,BJeLR lethal,PrP 5UTR inh,Sa RN4220 lethal,ugtP null kill,Bead autofluor
O=C1Nc2ccccc2/C1=N\c1sc2c(c1C(=O)Nc1ccccc1)CCCC2,·,·,-1,-8,·,·,10302
COc1ccc(NC(=S)NNC(=O)Cn2nc(C(F)F)cc2C(F)F)cc1,7,11,-14,-12,4.5,7,2396
Cc1cccc(OC(=O)c2ccc3nccnc3c2)c1,2,8,9,2,3.1,8,4064
CCN(CC)CCNCc1nc2ccccc2c(=O)n1-c1ccc(F)cc1,3,-4,-4,-15,2.4,10,7576
COc1ccc(CCC(=O)NNC(=O)c2cc(Cl)ccc2OC)cc1OC,1,10,3,-21,1.9,-1,3859
C=CCn1c(O)c(C=Nc2ccc(F)cc2)c(=O)[nH]c1=O,9,0,-14,5,1.7,9,·
O=C(c1cn(-c2ccccc2)nc1-c1cccs1)N1CCN(c2ccccc2)CC1,0,0,-1,-7,-0.9,0,9393
CCc1c(C)nc2c(-c3ccccc3)c[nH]n2c1=O,-1,9,24,-8,0.6,-3,3781
O=C1OCC2=C1C(c1ccc(F)cc1)c1cc3c(cc1N2)OCO3 (stereo not drawn),3,7,·,50,-1.7,10,3926
Cc1ccc(-c2csc3nc(C(C)C)oc(=O)c23)c(C)c1,3,-1,-5,2,2.1,7,3121
CCOC(=O)Nc1ccc2c(c1)N(C(=O)CN(C)C)c1ccccc1CC2,·,·,8,-3,·,·,5947
Cn1c(CN2CCCCC2)nc2cc(NC(=O)c3ccc(F)cc3)ccc21,-3,9,1,2,-0.3,-1,10523
O=C(Nc1c[nH]c(=O)[nH]c1=O)c1ccc([N+](=O)[O-])cc1,-2,-4,-5,-16,3.5,5,4610
CCOC(=O)c1ccc(Nc2nc(C)cc(=O)[nH]2)cc1,-2,1,-1,-3,4.6,5,12596
CCc1nn(-c2cc(Cl)ccc2OC)c2c1C(=O)CCC2,·,·,1,-11,-4.7,-11,3605
CCOC(=O)N1CCC(NC(=O)CCC(=O)c2ccccc2)CC1,-7,-11,3,-16,5.6,9,2722
CC(=O)Oc1c(-c2ccco2)oc2ccccc2c1=O,-7,4,-4,-27,12,12,4225
CCN(C(=O)CSc1nnc2ccccn12)C1CCS(=O)(=O)C1 (stereo not drawn),1,5,4,-9,3.2,15,3187
CCc1c(C(=O)OCc2ccccc2)[nH]c(C)c1C,7,6,-3,-40,7.6,-5,3782
Cc1cccn2c(=O)c3cc(C(=O)NC4CCCC4)c(=N)n(CC4CCCO4)c3nc12 (stereo not drawn),3,3,2,-27,4.3,-1,3636
CC(C)CC(=O)c1c[nH]c(C(=O)NCCCn2ccnc2)c1,2,0,2,-22,3.7,2,19657*
CC(=O)N=C(N)Sc1nc2ccccc2[nH]1,6,3,2,-53,2.8,1,3408
COc1ccc(CNCCc2c(C)[nH]c3ccc(OC(F)(F)F)cc23)c(OC)c1,·,·,13,-6,·,·,3856
CCn1nc(NS(=O)(=O)c2ccc(NC(C)=O)cc2)c2cc3ccc(C)cc3nc21,-1,3,0,5,0.7,-8,4936
COc1ccc(C2/C=C\CN(C(=O)c3ccc(C)cc3)CC(=O)N2Cc2ccc(F)cc2)cc1 (stereo not drawn),·,·,-3,0,·,·,2979
Cc1ccc(NC(=O)CSCC(=O)N(C)CC(=O)Nc2cccc3ccccc23)cc1,-10,1,-7,-10,-7.8,-6,6387
c1ccc(-c2nnc3ccc(N4CCC5(CC4)OCCO5)nn23)cc1,8,2,11,-13,2.6,2,15483
Cc1ccc(S(=O)(=O)NN=Cc2cccn2-c2ccc(Cl)cc2)cc1,10,13,·,·,10,-11,·
Cn1ncc(S(=O)(=O)Cc2ccccc2)c(Cl)c1=O,·,·,0,-22,·,·,?
CCOc1ccccc1N(CC(=O)Nc1ccccc1C(=O)OC)S(C)(=O)=O,3,3,12,-1,5.5,7,·

# Complete entries as entered above. Order of screens: Mtb hypoxia rep	Mtb hypoxia rep growth	BJeLR lethal	PrP 5UTR inh	Sa RN4220 lethal	ugtP null kill	Bead autofluor
# `CCn1nc(NS(=O)(=O)c2ccc(NC(C)=O)cc2)c2cc3ccc(C)cc3nc21` is listed as -1	3	0	5	0.7	-8	4936
# `Cn1ncc(S(=O)(=O)Cc2ccccc2)c(Cl)c1=O` is listed as ·	·	0	-22	·	·	?
# `Cc1ccc(NC(=O)CSCC(=O)N(C)CC(=O)Nc2cccc3ccccc23)cc1` is listed as -10	1	-7	-10	-7.8	-6	6387
# `Cc1cccn2c(=O)c3cc(C(=O)NC4CCCC4)c(=N)n(CC4CCCO4)c3nc12` (stereo not drawn) is listed as 3	3	2	-27	4.3	-1	3636
# `CCOc1ccccc1N(CC(=O)Nc1ccccc1C(=O)OC)S(C)(=O)=O` is listed as 3	3	12	-1	5.5	7	·

# Further entries.
SMILES,Mtb hypoxia rep,Mtb hypoxia rep growth,BJeLR lethal,PrP 5UTR inh,Sa RN4220 lethal,ugtP null kill,Bead autofluor
COc1ccc(S(=O)(=O)N(C)CC(=O)Nc2ccccc2C(F)(F)F)cc1,11,-2,4,-13,3.3,13,4962
O=C(Oc1ccc(/C=N/Nc2nc(N3CCCCC3)nc(N3CCCCC3)n2)cc1)c1ccco1,·,·,3,3,·,·,3270
CCC(=O)Nc1ccc(C(=O)COC(=O)C(CCSC)NC(=O)COc2ccccc2)cc1 (stereo not drawn),15,0,-5,-11,4.8,0,5898
CC(=O)c1cccc(NC(=O)/C(=C\c2ccco2)NC(=O)c2ccco2)c1,3,-3,-5,-17,1.7,6,6346
COc1ccc(CC(=O)N2CCN(c3ccccc3OC)CC2)cc1,5,5,4,-8,0.3,16,3123
O=c1[nH]cc(COCC(F)(F)C(F)(F)C(F)(F)F)c(=O)[nH]1,-4,6,-2,-29,0.4,5,3423
O=C(CCNS(=O)(=O)c1ccccc1C(F)(F)F)N1CCN(S(=O)(=O)c2cccc(Cl)c2)CC1,8,-5,13,-20,1.1,1,5667
Cc1cc(C(=O)CN2C(=O)NC(CC(C)C)C2=O)c(C)n1C1CC1 (stereo not drawn),2,3,·,-37,1.0,2,3207
CCOC(=O)c1cnc2nc(SC)nn2c1N,4,9,7,-57,5.4,-1,2552
O=C(CCCOc1cccc(Br)c1)NC1CCC(O)CC1 (stereo not drawn),4,19,6,-6,3.3,2,5759
COC(=O)C1=C(C)N(CCc2ccc(OC)c(OC)c2)C(=O)/C1=C\N(C)C,·,·,14,-2,2.9,-3,4492
Cc1cccc(NC(=S)NN=Cc2cccc([N+](=O)[O-])c2)c1,6,7,·,·,2.7,9,·
CCN1CCN(C(C)CCc2ccccc2)CC1 (stereo not drawn),8,6,-3,-5,3.8,16,3547
CCN(C(=O)CN1C(=O)NC2(CCCc3ccccc32)C1=O)c1ccc(F)cc1 (stereo not drawn),6,8,·,-9,2.7,3,4161
CCCCCC/C=N/Nc1nnc(Cc2ccc(OC)c(OC)c2)c(=O)[nH]1,·,·,-2,-3,·,·,3302
O=S(=O)(c1ccc(Cl)cc1)N1CCCC1c1nc(-c2ccc(Cl)cc2)no1 (stereo not drawn),7,6,2,-13,0.6,-5,10159
O=C(CCCc1nc(-c2ccccc2)no1)Nc1cccnc1,5,3,-7,-13,4.8,-2,4183
CCN(CC)S(=O)(=O)c1cc(NC(=O)CSc2nnc(-c3cccs3)o2)ccc1C,11,4,13,-24,2.8,2,2020
CCCCc1ccc(N=N/C(C(=O)Nc2ccc(NC(C)=O)cc2OC)=C(/C)O)cc1,9,-3,6,-5,10,62,3588
CCc1cc(=O)[nH]c(SCc2cccnc2)n1,2,-11,-12,-15,-1.3,0,5624
COc1ccc(OC)c(NS(=O)(=O)c2ccc3c(c2)CCC(=O)N3)c1,4,14,-10,9,5.7,1,10638
CC(C)(C)c1ccccc1OCCCCCn1ccnc1,·,·,3,-4,0.8,-6,4406
Nc1nonc1-n1nnc(C(=O)NN=Cc2ccc(F)cc2)c1-c1ccc2c(c1)OCO2,1,7,·,·,2.3,-3,·
COc1ccc(-n2c(Cc3cccn3C)nnc2SCC(=O)N2CCC(C)CC2)cc1,·,·,-6,-16,4.1,-3,5842
CCc1ccc(-c2cc(C(F)(F)F)n3nc(C(=O)Nc4cnn(Cc5ccccc5C)c4)cc3n2)s1,4,4,13,·,1.0,-12,10727
Cc1ccc(OCCN2CCN(CC(O)Cn3c4ccccc4c4ccccc43)CC2)cc1 (stereo not drawn),-6,9,-8,·,15,-31,·
CCc1nc(N2CCNCC2)c(C#N)c2c1CSC(C)(C)C2,8,6,-9,-27,2.2,-12,10736
CC(=O)Nc1ccc(NC(=O)c2c(-c3ccccc3)noc2C)cn1,2,3,4,7,7.9,15,4396
COc1ccc(OCCNC(=O)c2ccccc2OCC(=O)Nc2ccc(NC(C)=O)cc2)cc1,13,9,2,-33,7.6,12,6918
CCCn1c(CN2CCN(C(C)=O)CC2)nc2cc(S(=O)(=O)N(C)C)ccc21,-14,-2,-5,1,-3.7,-8,3037
O=C(NNC(=O)c1sccc1-n1cccc1)Nc1ccccc1,1,1,1,-8,-0.9,-19,4128
O=C(/C=C/c1ccccc1)NCC(=O)N/N=C/c1ccco1,·,·,-1,-22,·,·,7442
CC1(C)Cc2c(cnn2-c2cccc(F)c2)C(NC(=O)CN2CCCC2=O)C1 (stereo not drawn),4,-1,0,-29,2.0,4,4171
CN(CC(=O)Nc1c(Cl)cccc1Cl)C(=O)Cc1ccc2c(c1)CCC2,9,4,-7,-22,4.2,1,?
CC1CCN(S(=O)(=O)c2ccc3c(c2)N(CC(=O)NCCCOC(C)C)C(=O)CO3)CC1,4,5,-2,0,2.8,5,5046
COc1ccc(C2C=CCN(C(=O)Oc3ccc(C(F)(F)F)cc3)CC(=O)N2Cc2ccc(F)cc2)cc1 (stereo not drawn),2,1,·,·,4.1,3,·
CCC(=C(c1ccc(OC)cc1)c1ccc(OC)cc1)c1cn(CC(O)CN2CCN(C)CC2)c2ccccc12 (stereo not drawn),-6,1,·,-27,16,40,8678
Cc1noc(C)c1CSc1cc(C)c2ccccc2n1,12,6,-8,-27,8.6,2,10632
O=C(O)CCCCn1c(SCC(=O)Nc2ccccc2C(F)(F)F)nc2ccsc2c1=O,6,2,-25,-11,5.9,3,2136
CCOC(=O)c1nnn(-c2nonc2N)c1-c1ccccc1,0,-1,4,-31,4.3,5,23505*
CCC(C)C(NC(=O)OC(C)(C)C)c1cn(C(Cc2cc3ccccc3[nH]2)C(=O)N2CCN(C(=O)OC(C)(C)C)CC2)nn1 (stereo not drawn),-10,3,·,·,0.9,3,·
CCNC(=O)/C(=C\c1ccccc1)NC(=O)/C=C/c1ccccc1,4,14,-7,-19,1.3,3,2284
CN(C)CCNc1oc(COc2ccc(Cl)cc2Cl)nc1C#N,2,5,-2,·,6.6,1,9352
COc1ccc(C2C(C(=O)c3ccco3)=C(O)C(=O)N2CC2CCCO2)cc1 (stereo not drawn),10,6,14,-5,-2.4,6,4381
C=CCn1c(=O)c(C(=O)NCCc2ccccc2)c(O)c2ccccc21,4,6,0,6,8.2,28,6725
CCOC(=O)C1=C(N)OC2=C(C(=O)CCC2)C1c1cccnc1 (stereo not drawn),·,·,-6,-19,4.0,8,2242
CC(=O)Nc1ccc(Oc2cc(C#N)c(C#N)cc2N2CCOCC2)cc1,6,1,-7,-15,-11,0,2994
CCCN(c1ccc(C(C)C)cc1)S(=O)(=O)c1c(C)noc1C,·,·,-1,10,11,13,2389
CCc1ccc(NC(=O)COc2ccc(/C=C(/C#N)c3nc4ccccc4[nH]3)cc2OC)cc1,11,11,0,-4,2.5,-3,1965
Cc1cccc(NS(=O)(=O)c2ccc3c(c2)Cc2cc(S(=O)(=O)Nc4cccc(C)c4C)ccc2-3)c1C,-10,-16,·,-9,-1.6,-3,8859
Cc1[nH]c(=O)c(C#N)c(C)c1CCC(=O)Nc1cc(S(C)(=O)=O)ccc1Cl,3,5,-3,-9,-2.8,7,5465
CCOC(=O)c1c(NC(=O)CSc2nncs2)sc(C)c1-c1ccccc1,1,-2,-4,-23,-0.5,33,2368
Cc1nc(N2CCN(c3ccccn3)CC2)c2c(C)c(C(=O)Nc3c(C)cc(Br)cc3C)sc2n1,-10,19,-4,-12,-0.6,-3,5200
Cc1c(NC(=O)C(C)N2C(=O)NC3(CCC(C)CC3)C2=O)c(=O)n(-c2ccccc2)n1C (stereo not drawn),-13,3,12,5,-0.7,-7,4206
